ClpP mod: qHTS Assay for Activators of ClpP | ATP-dependent Clp protease proteolytic subunit (Bacillus subtilis (strain 168)), P80244 | purified B. subtilis ClpP, FRET peptide cleavage, 20 min | 1.9% of 340,000 active | Potency, µM (series often up to 57.5 µM), inactives show at the highest dose activity change, negative = active | AID 651965, 2013; active = well fitted falling curve with a large enough effect; inconclusive = small, poorly fitted or top-dose-only effect; inactive = no such curve, though single readings can be large or run the other way; note: potency is the fitted concentration of half-maximal effect; the source files actives as falling curves though it sought activators and does not explain the sign; nearly all actives have a fitted effect of over 65% in size; many hits overshoot -100%
Target sequence (P80244 whole entry, looked up): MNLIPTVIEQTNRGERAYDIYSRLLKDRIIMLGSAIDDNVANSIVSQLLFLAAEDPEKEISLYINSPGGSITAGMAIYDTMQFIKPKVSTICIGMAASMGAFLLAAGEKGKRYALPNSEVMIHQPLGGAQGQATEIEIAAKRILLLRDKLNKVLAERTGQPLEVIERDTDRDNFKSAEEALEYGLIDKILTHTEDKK
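FRET quenching reversal measured ClpP activation: 10 microg/mL B. subtilis ClpP at pH 8 with the FRET-FV decapeptide, read at 430 nm after 320 nm excitation. The 20-min minus 0-min signal was scaled between DMSO/no-enzyme wells and ADEP (5.8 microM final).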
TRPML1 agonist: activates the human TRPML1 channel. Q9GZU1. TRPML1-expressing cells, Ca2+ dye fluorescence, FDSS; host cell line not named in the record; reference of the full effect not given here. activation, % (test concentration not listed). 0.12% of 410,000 active; in the data active = activation above about 50%; inconclusive = about 30% to 50%; inactive = below about 30%; note: 0% is about no effect; the text of the record puts the active cut at 80%
Target sequence (Q9GZU1 whole entry, looked up): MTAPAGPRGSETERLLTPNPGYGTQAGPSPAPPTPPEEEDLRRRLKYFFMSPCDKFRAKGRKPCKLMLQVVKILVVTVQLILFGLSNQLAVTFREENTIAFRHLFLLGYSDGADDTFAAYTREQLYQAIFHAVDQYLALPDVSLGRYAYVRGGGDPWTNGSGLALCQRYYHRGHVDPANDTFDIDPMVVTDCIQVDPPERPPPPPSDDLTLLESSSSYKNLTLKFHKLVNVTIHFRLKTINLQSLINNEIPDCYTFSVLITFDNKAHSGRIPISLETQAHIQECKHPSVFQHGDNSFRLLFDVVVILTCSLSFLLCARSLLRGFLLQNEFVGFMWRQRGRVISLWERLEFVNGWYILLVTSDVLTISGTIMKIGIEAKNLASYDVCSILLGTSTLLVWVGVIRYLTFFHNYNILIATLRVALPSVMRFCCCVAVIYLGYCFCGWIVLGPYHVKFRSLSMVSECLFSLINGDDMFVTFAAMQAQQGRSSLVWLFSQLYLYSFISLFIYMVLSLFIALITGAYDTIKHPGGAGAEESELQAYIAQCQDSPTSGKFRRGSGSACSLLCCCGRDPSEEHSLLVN
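Kinetic FDSS Ca2+ read in Tet-induced TRPML1-DL cells (ABD Ca8 dye plus quencher, 45-90 min RT loading): baseline, then compound, then 110 s agonist window; EC80 agonist 54-4 at 4uM final added afterwards for a 110 s antagonist window.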
Menin MLL FP FL: inhibitors of human menin-MLL interaction, wild-type MLL peptide; Fluorescence polarization, fluorescein-MLL peptide displacement from menin; FP activity change, % at 61.4 µM; 290,000 tested, under 10 active; AID 1766; inconclusive = falling polarisation curve, or a change in total fluorescence; inactive = total fluorescence flat and polarisation flat or rising; no compound was filed as active; the % refers to the polarisation; negative = inhibition;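 note: % of control where 0% means no effect; inhibitors lower the polarisation; unlabelled MLL peptide was the positive control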
gsp antagonist: antagonizes gsp, the McCune-Albright syndrome mutation. Potency, µM (titrated, usually from 76.9 µM), without a hit: at the top dose activity change, negative = inhibition, actives largely listed as inhibitors. 0.4% of 340,000 active. AID 624288. gsp-mutant cells, cAMP HTRF, 30 min; control for the full effect not named in the record; active = falling curve of any shape with a large fitted effect; inconclusive = falling curve, mostly with a smaller effect; inactive = flat or rising curve; cell line not stated here;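 note: intracellular cAMP measured with PDE inhibitor Ro 20-1724 present during compound exposure; potency is the fitted concentration of half-maximal effect; % is set by controls: 0 for no effect and ±100 for the full control effect; nearly all actives have a fitted effect of over 65% in size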
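HTRF cAMP measurement after 30 min RT detection following 30 min, 37C compound treatment alongside […] (added as 300 uM solution) in G418-selected cells seeded at 2000/well and grown 16–24 h.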
gsp ag: agonists of gsp mutant (McCune-Albright syndrome). gsp mutant cells, cAMP HTRF, 30 min; control for the full effect not named in the record. Potency, µM (series often up to 76.9 µM), inactives show top-dose activation (cAMP increase), most hits filed as activators. 0.13% of 340,000 active. AID 624287; active = well fitted activation curve with a large enough effect; inconclusive = small, poorly fitted or top-dose-only effect, or another doubt; inactive = no such curve, though single readings can be large or run the other way; cell line not stated here;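 note: phosphodiesterase inhibitor Ro 20-1724 added with compounds to block cAMP breakdown; potency is the fitted concentration of half-maximal effect; nearly all actives have a fitted effect of over 60% in size; about a fifth of the inactives were tested at one dose only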
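Cells in DMEM/10% FBS with G418 were pretreated with compounds in DMSO plus […] (300 uM stock) for 30 min at 37C. cAMP was measured by HTRF (cAMP-d2 plus anti-cAMP antibody-K) after 30 min at room temperature.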
TRPML1 inh: human mucolipin-1 channel inhibition. Q9GZU1. AID 624415. activity change, negative = inhibition, % (concentration not given with the values). 0.02% of 390,000 active. TRPML1-inducible cells, Ca2+ dye fluorescence, FDSS; active compounds read low; inhibition of EC80 agonist-evoked calcium signal; in the data active means activity change below about -50%; inconclusive means about -30% to -50%; inactive means above about -30%;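 note: stimulus is agonist 54-4 at its EC80 concentration; % is set by controls: 0 for no effect and ±100 for the full control effect; the text of the record puts the active cut at -80%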
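Calcium fluorescence in TRPML1-DL cells induced overnight with Tet: a 110 s read after compound pin addition, then a 110 s antagonist read after challenge with 54-4 at 4 uM final (EC80).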
An asterisk follows results filed as active; ? = inconclusive; / = not tested or not shown; & = joins results of further samples; [ ] = dose if it differs, or a comment.

SMILES	ClpP mod	TRPML1 agonist	Menin MLL FP FL	gsp antagonist	gsp ag	TRPML1 inh
CCSc1nc2ccccc2c(=O)n1-c1c(C)n(C)n(-c2ccccc2)c1=O	/	-0.4	3.8	8%	-3%[15.4 µM]	-6
O=C(c1cccs1)N1CCCc2cc(NS(=O)(=O)c3ccc(Cl)cc3)ccc21	0.4%	2.3	/	/	/	-11
CC(=O)Nc1ccc(NC(=O)Nc2cc(C)cc(C)c2)cc1	/	0.9	?	0%	-4%[15.4 µM]	7
O=C(CSc1nnc(Cn2c(=O)sc3ccccc32)n1-c1ccccc1)Nc1nccs1	-2.1%	0.9	2.0	-4%	-58%[inhibitor]	-15
CCOC(=O)C1CCN(C(=O)c2ccc(NS(=O)(=O)c3ccc(F)cc3C)cc2)CC1	1.0%	0.8	2.9	-17%	-5%[15.4 µM]	32
COc1cccc(N2CCN(S(=O)(=O)c3ccc4ccccc4c3)CC2)c1	-25%	0.0	/	3%	2%	-15
O=C(c1cccs1)N1N=C(c2ccc(O)cc2)CC1c1ccccc1 (configuration not stated)	-26%	-0.3	7.3	?	11%	13
O=C(C1CC12CCCC2)N1CCC(CO)(Cc2ccccc2Cl)CC1 (configuration not stated)	0.2%	0.4	3.3	1%	?	-5
CC(C)CN(C(=O)C1CCCCC1)C1CCS(=O)(=O)C1 (configuration not stated)	0.9%	0.7	/	-2%	1%[15.4 µM]	32
NS(=O)(=O)c1ccc(NC(=O)COC(=O)CSc2n[nH]c(-c3ccccc3)n2)cc1	-0.7%	0.4	3.8	-12%	-3%	-2
Cc1ccc(CNC(=O)c2cccn2-c2nnc(N3CCCCC3)s2)cc1	-4.9%	1.5	/	/	/	4
CC(=O)c1sc(C(C)(C)C)cc1NC(=O)CCC(=O)O	/	0.4	-2.5	14%	8.9µM*	15
Cc1ccccc1-n1ncc(C(C)NS(=O)(=O)c2ccccc2Cl)c1C (configuration not stated)	0.1%	0.5	/	-1%	-14%	-2
CN1/C(=C/c2cc[n+](C)c3ccccc23)C=Cc2ccccc21	/	-0.1	-10	/	-1%[15.4 µM]	29
Cc1ccc(S(=O)(=O)Nc2ccc3c(c2)C(=O)NC3=O)cc1[N+](=O)[O-]	0.4%	-0.5	/	-7%	?	-8
CC(CNC(=O)c1ccccc1Cl)NC(=O)c1ccccc1Cl (configuration not stated)	/	-0.1	/	18%	-6%[15.4 µM]	-20
O=C(CSc1nc(-c2cccs2)nc2cc(=O)[nH]n12)Nc1ccccc1	1.4%	0.6	/	/	/	7
CCOC(=O)N1CCN(C(=O)c2ccccc2N(Cc2ccccc2)S(=O)(=O)c2ccccc2)CC1	/	0.4	-1.8	-10%	-32%[inhibitor]	-3
COCCNC(=O)c1ccc(C2SCC(=O)N2CCc2ccccc2)cc1 (configuration not stated)	2.4%	0.3	1.1	-9%	26%	-1
COc1cc(NC(=O)c2ccc(NS(=O)(=O)c3c(C)noc3C)cc2)cc(OC)c1	-3.5%	-1.1	-1.4	-5%	-9%	9
CN(CCCNC(=O)CSc1cc(=O)n(C)c2ccc(Cl)cc12)Cc1ccccc1	/	-0.5	1.2	-10%	?	-7
Cc1ccc(OC(=O)NC2CCS(=O)(=O)C2)cc1C (configuration not stated)	0.9%	-0.1	-0.6	8%	6%	10
COc1cc(/C=N/NC(=O)c2cccc(NC(=O)c3ccccc3Cl)c2)ccc1O	-4.4%	4.5	3.5	1%	?	8
Cc1cccc(OC(=O)c2ccc3nccnc3c2)c1	1.3%	-0.5	1.1	-13%	-23%	0
CN1C=CC=C/C1=C1\SC(=S)N(c2ccccc2)C1=O	-0.1%	1.4	7.6	-5%	10%[15.4 µM]	15

Next compounds.
SMILES	ClpP mod	TRPML1 agonist	Menin MLL FP FL	gsp antagonist	gsp ag	TRPML1 inh
CCCCSCCCNC(=O)c1cn(CC)c2ccc(S(=O)(=O)N3CCOCC3)cc2c1=O	-3.9%&-5.2%	1.1&-0.3	-9.8	-18%	0%	7&-1
CCNc1nc(NCC)nc(N/N=C/c2cc(OC)c(OC)c(OC)c2)n1	-1.6%	1.5	-0.1	7%	-2%	-5
O=C(COC(=O)c1ccc(Cl)c(Cl)c1)Nc1cccnc1Cl	1.3%	2.1	3.6	11%	-7%	-2
COc1ccc(OCC(=O)NNC(=O)c2cccc(C)c2)cc1	/	-0.4	1.5	11%	17%	5
COc1ccc(/C=C2\SC(=S)N(CCCC(=O)Nc3ccccc3C(=O)O)C2=O)cc1OC	1.8%	1.2	/	35µM*	?	4
COc1ccc(C2N(C(C)=O)CCN2S(=O)(=O)c2ccc(C)cc2)cc1 (configuration not stated)	-1.6%	0.4	/	8%	-2%	7
O=C1CCCc2c1cc(C(=O)NCCCN1CCOCC1)c(=O)n2-c1ccc(Cl)cc1	4.4%	0.1	0.9	0%	-9%	-25
NCCCC[C@@H]1NC(=O)[C@H](CCC(=O)O)NC(=O)c2cc([N+](=O)[O-])cc(I)c2NCC[C@@H](C(N)=O)NC1=O	1.3%	-0.6	-0.3	10%	/	5
COc1ccc(NC(=O)CSc2nnc3ccc(-c4ccccn4)nn23)cc1OC	1.1%	12	/	-10%	16%	-1
NC1=NC[C@H](Cc2ccccc2)N1CC1CCCCC1	-0.5%	-0.8	/	12%	-2%	13
O=C(CCc1ccc(S(=O)(=O)NCc2ccccc2)cc1)NCc1cccnc1	14µM*	-1.4	6.2	-1%	-2%	8
Clc1ccc(SCCCCn2ccnc2)cc1	-0.4%	-1.4	3.5	9%	-44%[inhibitor]	3
Cc1ccc(S(=O)(=O)NCc2c(Cl)cccc2Oc2ccccc2)cc1	-0.9%	-0.1	-1.9	-15%	9%[15.4 µM]	16
O=C(Cn1nnc(-c2ccccc2-n2cnnn2)n1)c1ccccc1	-1.2%	0.9	3.4	-7%	-16%	-3
Cc1nc2ccccc2c2oc(C(=O)N3CCN(C(=O)c4ccco4)CC3)cc12	-2.9%	-0.1	4.4	1%	-53%[inhibitor]	23
Cc1nn2c(-c3ccccc3)c(-c3ccccc3)nc2[nH]c1=O	-11%	1.1	6.2	9%	?	-10
c1ccc(CN2CCC3(CC2)Nc2ccccc2S3)cc1	1.0%	0.3	2.3	14%	-1%	20
CCOC(=O)c1cnc2ccc(C)cc2c1Nc1ccc(N(CC)CC)cc1	-4.8%	-0.2	/	/	/	-15
COc1ccc(Cc2nnc(NC(=O)CSc3ccccc3)s2)cc1OC	0.5%	0.1	4.3	4%	2%	7
Cc1csc(Nc2ccc(Cl)cc2)n1	2.0%	0.5	3.5	-3%	4%[15.4 µM]	11
COC(=O)c1ccccc1NC(=O)NCCc1ccccc1OC	/	0.5	0.9	-16%	?	0
COC(=O)c1cc(CN2CCN(c3ccccc3)CC2)ccc1O	-0.8%	-0.7	-4.6	11%	-2%	37
CCCCN1C(=O)c2ccc(C(=O)Nc3ccccc3N3CCOCC3)cc2C1=O	-7.8%	-1.2	-2.3	-4%	-3%[15.4 µM]	26
N=c1c(C(=O)NC2CCCCC2)cc2c(=O)n3ccccc3nc2n1Cc1cccnc1	/	-0.6	-16	-5%	-1%[15.4 µM]	-2
COc1ccc(C(=O)NC2CCN(C(=S)Nc3ccc(C)cc3)CC2)cc1	/	0.3	-2.0	13%	-11%	-11

Filtered by structure, the entries above with a thiophene ring, fused or not.
SMILES	ClpP mod	TRPML1 agonist	Menin MLL FP FL	gsp antagonist	gsp ag	TRPML1 inh
O=C(c1cccs1)N1CCCc2cc(NS(=O)(=O)c3ccc(Cl)cc3)ccc21	0.4%	2.3	/	/	/	-11
O=C(c1cccs1)N1N=C(c2ccc(O)cc2)CC1c1ccccc1 (configuration not stated)	-26%	-0.3	7.3	?	11%	13
CC(=O)c1sc(C(C)(C)C)cc1NC(=O)CCC(=O)O	/	0.4	-2.5	14%	8.9µM*	15
O=C(CSc1nc(-c2cccs2)nc2cc(=O)[nH]n12)Nc1ccccc1	1.4%	0.6	/	/	/	7

2 compounds drawn at random from the list so far:
SMILES	ClpP mod	TRPML1 agonist	Menin MLL FP FL	gsp antagonist	gsp ag	TRPML1 inh
Cc1nc2ccccc2c2oc(C(=O)N3CCN(C(=O)c4ccco4)CC3)cc12	-2.9%	-0.1	4.4	1%	-53%[inhibitor]	23
Cc1ccc(OC(=O)NC2CCS(=O)(=O)C2)cc1C (configuration not stated)	0.9%	-0.1	-0.6	8%	6%	10

(next part)
SMILES	ClpP mod	TRPML1 agonist	Menin MLL FP FL	gsp antagonist	gsp ag	TRPML1 inh
C=CCOC(=O)C1=C[C@@H](c2ccc3c(c2)OCO3)C[C@@H](OCCCCO)O1	25%	-0.6	/	-20%	?	?
CCOC(=O)C1CCN(c2c(Nc3ccc4c(c3)OCCO4)c(=O)c2=O)CC1	-4.7%	-0.4	-2.1	-20%	-11%	5
CN1CCN(C(=O)C2=C[C@H](C3CCCCC3)C[C@H](OCc3ccc(CO)cc3)O2)CC1	-2.8%	-0.2	3.5	6%	9%	-13
O=c1cc(CN2CCOCC2)c2ccc(O)c(O)c2o1	4.0%	0.4	-1.1	-11%	-5%	12
CCOc1ccc(S(=O)(=O)NCCC(=O)NCCOc2ccccc2OC)cc1	/	-0.4	/	37%	8%[15.4 µM]	4
COCCCNC(=O)c1sc2nc3n(c(=O)c2c1C)CCC3	-17%	-0.5	/	/	/	-9
CCCSc1nnc(CSc2nc3nc(C)cc(C)n3n2)o1	0.7%	0.7	-0.4	8%	2%	-3
CCOc1ccc(C(=O)COC(=O)CNC(=O)C2CCCCC2)cc1	-1.2%&1.8%	-1.2&-0.4	/	1%	-33%[inhibitor]	-3
COc1ccc(NC(C)=O)c([N+](=O)[O-])c1[N+](=O)[O-]	/	0.1	/	7%	-17%	18
S=c1[nH]ccn1-c1cccc(Cl)c1Cl	-1.5%	-0.1	0.9	11%	-3%	0
COc1c(C)cc(C(O)c2ncc(-c3ccccc3)[nH]2)cc1C (configuration not stated)	-0.6%	0.2	/	/	/	10
O=C(O)c1ccccc1-c1ccccc1C(=O)Nc1cccc(Br)c1	/	-0.2	3.7	-6%	-2%[15.4 µM]	1
O=S(=O)(c1ccc(Cl)nc1)N1CCOCC1	0.3%	1.6	/	8%	4%	-7
CCOc1ccccc1N1CCN(C(=O)c2c(Cl)cnn2C)CC1	4.1%	0.0	/	9%	4%	-13
Cc1ccc([C@@H]2C3COCC=C3C(C#N)=C(N)C2(C#N)C#N)o1 (some centres not stated)	6.7%	5.5	?	-17%	?	-7
COc1ccc(-c2ccc(N(C)C)cc2)cc1C1C2C=CCCC2(C)C(=O)N1Cc1ccccc1 (configuration not stated)	/	0.5	0.4	/	/	2
O=c1cc(CSCc2ccc(Cl)cc2)[nH]c(=O)[nH]1	-0.4%	-0.5	1.1	7%	8%[15.4 µM]	-1
CN(C)Cc1ccc(CNC(=O)c2ccc(Cl)c(S(=O)(=O)NC3CC3)c2)cc1	-3.5%	0.6	/	7%	4%	21
